Assay outcomes: PubChem, several laboratories
HIV Env fusion = inhibitors of HIV-1 Env-driven cell-cell fusion, primary screen, HeLa-JRFL effector, CEM21 target cells, luciferase; hit rate 1.1% among 360,000; AID 651610, 2012; inhibition, % at 12.3 µM;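 active = mean replicate inhibition score of at least 50 and every replicate individually at or above 50; inconclusive = only one of the two criteria met; inactive = mean below 50 and not all replicates reaching 50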;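 note: 0% = plate neutral controls and 100% = maraviroc near 300 nM; one replicate is shown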
MT1-MMP act inh = blockers of MT1-MMP proenzyme processing, primary screen, HT1080 RFP-PRO-GFP cells, GFP/RFP fluorescence | AID 651647, 2012 | GFP/RFP ratio change, % at 20 µM | hit rate 0.061% among 360,000 | Matrix metalloproteinase-14 (Homo sapiens), P50281 | GFP/RFP ratio fluorescence, overnight; percent of plate control window, DMSO zero;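 active = GFP/RFP ratio change of at least 30% with cell ATP level not reduced by more than half and red fluorescence within 50% of control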; note: strong numbers were not always called active
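Assay system: HT1080 RFP-PRO-GFP cells | Dosing: 20 µM single dose, 1% DMSO | Incubation: Cells overnight before dosing, compound overnight, 37 °C, 5% CO2 | Evaluation: GFP/RFP fluorescence ratio | Control set: DMSO-only wells and HT1080 RFP-L50D-GFP cell wells as references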
CSC inhib = cancer stem cell viability inhibitors, primary screen, luminescence; cancer stem cell-like cells viability; inhibition, % at 7.5 µM; hit rate 1.1% among 300,000;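 active = mean at 75% or more and at least half the replicates too; inconclusive = mean and replicates disagree; tested in HMLE shEcad cells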;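 note: 0% = median of negative and 100% = median of positive control wells; the first replicate is given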
PABP FP inh = PABP poly(A) RNA binding inhibitors, primary screen, biochemical, fluorescence polarization, uHTS. hit rate 1% among 290,000. inhibition, % at 35 µM. Polyadenylate-binding protein 1 (Homo sapiens), P11940;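 active = 50% or more with normal probe brightness, or confirmed in later tests; inconclusive = above 50% with abnormal brightness, or retests that disagree; inactive = below 50% or failed in later tests; about a fifth of its hits are not listed in these tables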;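 note: calls also rest on retests at 20 µM and on dose response follow-up; controls were probe without protein and protein plus probe with vehicle; some compounds called inactive have numbers as strong as hits; many hits fall short of the cut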
Target sequence (P11940 whole entry, looked up): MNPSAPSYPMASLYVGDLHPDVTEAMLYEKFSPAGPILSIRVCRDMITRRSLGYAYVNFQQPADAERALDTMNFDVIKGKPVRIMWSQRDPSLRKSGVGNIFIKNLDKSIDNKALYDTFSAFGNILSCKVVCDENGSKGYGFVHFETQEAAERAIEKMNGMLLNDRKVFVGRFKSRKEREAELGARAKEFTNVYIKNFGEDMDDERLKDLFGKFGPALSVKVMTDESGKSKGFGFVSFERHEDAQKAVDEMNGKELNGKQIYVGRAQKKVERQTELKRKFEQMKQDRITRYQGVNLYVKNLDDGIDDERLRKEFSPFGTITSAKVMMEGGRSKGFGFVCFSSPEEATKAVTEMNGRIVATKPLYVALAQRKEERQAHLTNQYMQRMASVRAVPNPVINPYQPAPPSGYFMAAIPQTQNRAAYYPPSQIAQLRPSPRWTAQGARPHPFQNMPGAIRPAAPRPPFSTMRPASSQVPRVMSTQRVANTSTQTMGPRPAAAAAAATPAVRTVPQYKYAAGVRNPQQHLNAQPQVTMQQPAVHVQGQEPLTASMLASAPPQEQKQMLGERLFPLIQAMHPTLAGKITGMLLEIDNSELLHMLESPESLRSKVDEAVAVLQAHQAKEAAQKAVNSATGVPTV
eIF4H FP inh = human eIF4H binding inhibitors, primary screen, translation initiation inhibitor project, biochemical, uHTS, fluorescence polarization; eIF4H fluorescence polarization binding assay; inhibition, % at 35 µM; hit rate 0.94% among 290,000;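 active = 50% or more with normal probe brightness, or confirmed in later tests; inconclusive = above 50% with abnormal brightness, or retests that disagree; inactive = below 50% or failed in later tests; about a fifth of its hits are not listed in these tables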;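 note: calls also rest on retests at 20 µM and on dose response follow-up; 0% = protein and probe with vehicle and 100% = probe without protein; strong numbers were not always called active; many hits fall short of the cut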
Rce1 inh = yeast Rce1p protease inhibitors, primary screen, biochemical, fluorescence, cell-free homogeneous; CAAX prenyl protease 2 (Saccharomyces cerevisiae (strain ATCC 204508 / S288c)), Q03530; calls only; hit rate 0.27% among 290,000; yeast membranes, quenched prenylated peptide cleavage fluorescence;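 active = fall in fluorescence gain of 50% or more versus controls, with final raw signal at or below 3038400; inconclusive = same 50% fall but final raw signal above 3038400; inactive = fall in fluorescence gain under 50%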;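 note: plate controls were neutral control wells for no effect and wells lacking membranes for full effect; tested at 10 µM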
Target sequence (Q03530 whole entry, looked up): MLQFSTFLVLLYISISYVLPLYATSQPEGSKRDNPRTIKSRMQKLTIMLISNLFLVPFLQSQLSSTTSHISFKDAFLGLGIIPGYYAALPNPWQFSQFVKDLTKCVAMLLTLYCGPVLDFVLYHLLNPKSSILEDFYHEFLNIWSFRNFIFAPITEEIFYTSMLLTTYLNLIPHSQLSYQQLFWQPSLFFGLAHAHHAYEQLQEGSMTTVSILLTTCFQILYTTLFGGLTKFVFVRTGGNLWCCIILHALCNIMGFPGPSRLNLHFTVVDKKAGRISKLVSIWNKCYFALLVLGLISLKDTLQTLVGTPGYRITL
UUG fidelity = modulators of yeast start codon fidelity, primary screen, whole organism, S. cerevisiae, single point, plate reader; S. cerevisiae UUG-firefly luciferase reporter, luminescence/redox ratio; activity score, % at 18.7 µM; hit rate 0.13% among 350,000;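 active = replicate mean at a twofold rise or more, about +100% in these data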;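 note: firefly luciferase made from a UUG start codon reports start codon fidelity; reporter light over untreated wells divided by growth signal over untreated wells; some hits fall short of that in this replicate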
MT1-MMP act inh RFP = second read-out of MT1-MMP act inh, no call of its own (marks repeat the call); RFP signal change, %; measured here: RFP expression control read;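 0 = vehicle wells; hits needed this value within 50% of zero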
The depositor's hits bear a star; i = inactive; ? = inconclusive; nt = not tested or not shown. A portion of the library; count on the stated rates, not on these rows.

SMILES	HIV Env fusion	MT1-MMP act inh	MT1-MMP act inh RFP	CSC inhib	PABP FP inh	eIF4H FP inh	Rce1 inh	UUG fidelity
Cc1cc(NC(=O)c2noc3c2CCc2ccccc2-3)n(-c2ccccc2)n1	-17.2	7.5	3.9	0.1	-11.1	-1.8	i	-16.0
Cc1ccccc1CSCc1ccc(C(=O)NCCCN2CCOCC2)o1	-1.5	-4.3	-2.7	-18.0	-4.8	0.5	i	-0.2
CN(C(=O)Cn1nnc(-c2cccnc2)n1)C1CCCCC1	12.4	nt	nt	-4.1	3.2	-4.8	i	nt
O=C1c2ccccc2S(=O)(=O)c2cc(-c3nn[nH]n3)ccc21	-45.1	0.5	5.5	nt	nt	nt	nt	-21.1
Cn1c(=O)c2cc(NC(=O)OCCF)ccc2n1Cc1cccc(C(F)(F)F)c1	12.9	-4.4	-9.5	nt	nt	nt	nt	-14.9
O=C(NC1CC1)C1CCN(C2CCN(C(=O)Cc3ccc4c(c3)OCO4)CC2)CC1	0.3	-0.4	4.0	2.4	0.9	-0.2	i	-7.6
CC1=NN(c2ccccc2)C(=O)/C1=C\N(O)c1ccccc1	1.5	2.0	0.0	-3.7	-5.0	-1.0	i	-8.2
CCC(C)(C)NC(=O)CN(Cc1ccccc1Cl)C(=O)CCC(=O)Nc1cc(C)ccn1	29.7	-6.6	-3.1	0.8	-2.0	-5.3	i	-1.3
COc1ccc(S(=O)(=O)N(C)C)cc1NC(=O)COC(=O)CC1CCCC1	-58.4	1.8	0.6	0.1	6.8	-2.3	i	nt
C=C1CCC[C@]2(C)C[C@H]3OC(=O)C(CNC(CC)CO)[C@H]3CC12 (some centres undefined)	26.0	-8.4	-8.7	17.2	5.2	-7.2	i	-3.0
Cc1ccc2c(c1)N(CC(=O)N1CCCCC1)C(=O)C(C)O2 (centres undefined)	-5.4	2.7	5.4	-13.4	-1.4	7.1	i	-3.6
COc1ccccc1N(CC(=O)NCCc1ccccc1)C(=O)CCC(=O)Nc1cc(C)ccn1	-3.1	-0.7	1.0	-3.2	11.7	3.5	i	nt
Cc1ccccc1NC(=S)N(CCc1c(C)[nH]c2ccc(F)cc12)Cc1ccncc1	27.3	0.0	-10.3	-5.8	2.1	2.7	i	nt
Cc1[nH]n(-c2ccc(Cl)cc2)c(=O)c1N=Nc1cccnc1	-20.1	1.9	-0.9	15.8	6.8	-3.8	i	nt
CCOC(=O)c1cc(C)n(Cc2ccccc2)c1C	-28.6	-1.4	-0.1	-8.9	8.8	12.6	i	2.0
O=C(Nc1cccc(Cl)c1Cl)C1CCN(c2ncccn2)CC1	-7.5	1.4	1.5	-1.1	0.1	-2.7	i	-0.5
COC(=O)c1cnc(Nc2nc(CN)cs2)nc1C(F)(F)F	-22.3	4.9	0.5	nt	nt	nt	nt	-11.8
Cc1ccc(S(=O)(=O)Oc2ccc(/C=C(/NC(=O)c3ccccc3)C(=O)NCC(=O)O)cc2)cc1	-15.9	-0.6	2.1	1.4	5.3	-4.5	i	nt
Cc1nc2ccccc2c(C)c1C(=O)c1ccc(F)cc1	12.1	-1.2	2.8	-14.8	?	-8.3	i	nt
N#C/C(=N\Nc1ccccc1Cl)C(=O)c1ccccc1	-72.3	-0.7	-3.4	28.8	4.8	-4.7	i	-19.6
Cc1ccc2c(c1)C(=O)C(=O)N2c1ccc(Cl)cc1	26.9	0.5	7.4	-3.4	nt	nt	nt	-5.1
CC1OC(O[C@H]2CC[C@]3(C)C4C=C[C@]56OC[C@@]7(CC[C@@H](C)[C@H](C)C75)[C@H](O)C[C@@]6(C)[C@]4(C)CC[C@H]3C2(C)C)C(OC2OC(CO)C(O)C(O)C2OC2OCC(O)C(O)C2O)C(O)C1O (some centres undefined)	nt	nt	nt	nt	-4.7	-0.9	i	nt
COc1ccc(-c2oc3ccc(-c4cc(OC)c(OC)c(OC)c4)cc3c2C#Cc2ccccn2)cc1	33.7	-8.3	-1.2	36.8	nt	nt	nt	-5.9
Cc1ccc(C(C)C)c(OCCN)c1	nt	-1.9	-0.2	-2.6	-1.6	1.8	i	-30.4
CC(OC(=O)C1=COCCO1)C(=O)Nc1ccc(Cl)cn1 (centres undefined)	0.7	-2.2	4.7	-1.2	nt	nt	i	-5.4
SMILES	HIV Env fusion	MT1-MMP act inh	MT1-MMP act inh RFP	CSC inhib	PABP FP inh	eIF4H FP inh	Rce1 inh	UUG fidelity
CCC(C)OC(=O)C1C(c2ccccc2)C(C(=O)O)C1c1ccccc1 (centres undefined)	4.7	2.5	2.2	18.5	-3.7	11.8	i	-17.1
COc1cc(NC(=O)CCN2CCN(C)CC2)cc(OC)c1	-20.0	-3.5	0.5	-2.4	-4.0	1.1	i	-4.2
Cc1cccc(C)c1OCc1nc2ccccc2[nH]1	-8.9	-0.4	0.2	8.0	10.7	-2.1	i	nt
CC(C)NC(=O)/C(=C\c1cccc([N+](=O)[O-])c1)NC(=O)c1ccccc1	-21.7	-0.6	-0.8	-2.7	-4.5	0.8	i	-14.5
COc1ccc(-c2oc3ccccc3c2C#Cc2cncn2C)cc1	-8.9	-7.6	-8.0	103.4*	nt	nt	nt	-43.6
Cc1ccc(NC(=O)C2CCC(C(C)(C)C)CC2)cc1S(=O)(=O)N1CCOCC1 (centres undefined)	30.1	11.8	-16.5	45.1	nt	nt	nt	nt
O=c1c(Cl)c(NCc2ccc(F)cc2Cl)cnn1C12CC3CC(CC(C3)C1)C2	nt	-20.4	-30.4	52.2	1.6	-1.5	i	-3.0
CC12CCC(=O)N1C(C(=O)Nc1ccc(F)c(Cl)c1)CS2 (centres undefined)	-32.0	8.7	-1.8	-4.8	nt	nt	i	nt
O=C(CSc1nc2ccccc2c(=O)n1-c1ccc(F)cc1F)c1c[nH]c2ccccc12	15.4	-4.3	-0.9	31.3	-8.0	10.6	i	-17.5
CC1CCN(S(=O)(=O)c2ccc(S(=O)(=O)NCc3ccco3)cc2)CC1	nt	1.7	-1.6	2.6	-4.4	5.4	i	-1.2
COc1ccc(NC(=O)c2cc(=O)c3ccccc3o2)cc1Cl	19.1	0.9	2.4	1.4	-18.4	2.0	i	-17.5
CCCCC1(CC(=O)OCC)C(=O)N(c2ccccc2)N(c2ccccc2)C1=O	37.6	-6.2	-0.7	5.3	0.7	5.2	i	nt
O=C(CCn1cccc1)N1CCc2ccccc21	nt	-1.6	-1.9	9.0	?	?	i	-10.9
CN(C)c1ccc(NS(=O)(=O)c2cc(Cl)ccc2Cl)cc1	10.6	3.1	-1.6	23.6	4.9	5.7	i	nt
Cc1cccn2c(CNCCCn3ncc4ccccc43)c(C(=O)N3CCCCC3)nc12	30.7	-0.5	-2.2	13.9	53.2*	-1.9	i	nt
CC(=O)Nc1ccc(C=C(C#N)c2ccc(C)cc2)cc1	-74.1	1.1	-5.2	nt	nt	nt	nt	-11.2
CCc1ccc(OCC(=O)NNC(=O)c2cc3ccccc3o2)cc1	-13.3	-0.3	-1.5	-7.8	-5.9	-4.7	i	-23.9
O=C1C2CC=C(Cl)CC2C(=O)N1CC1Cc2ccccc2CO1 (centres undefined)	nt	-7.1	2.2	3.7	39.5	24.7	i	7.9
CCOC(=O)C1(C)CCCN(C(=O)c2ccc(N(C)C)cc2)C1 (centres undefined)	-7.3	1.8	3.9	nt	nt	nt	nt	8.4
CCCCCCCCOC(=O)/C=C/c1c(C)[nH]c(=O)[nH]c1=O	13.6	-6.9	-7.4	3.1	8.7	-5.9	i	-18.9
COc1ccc(Cl)cc1NC(=O)[C@@H]1CCCN1C(=O)c1cccs1	19.1	-1.2	2.1	-23.2	-17.6	0.2	i	nt
CCc1nn2c(=O)cc(N3CCN(c4cc(C)nc5ccccc45)CC3)nc2s1	nt	nt	nt	nt	-0.9	-3.4	i	nt
Cc1nnc(N/N=C/c2ccccc2O)n1N	2.8	8.4	11.1	13.9	1.0	5.3	i	nt
O=C(O)c1cc(-c2cccs2)nn1-c1cccc(Cl)c1	0.1	0.0	0.1	-9.2	4.9	9.9	i	-21.0
CC1(C)CC2CC(C)(CN2S(=O)(=O)c2ccccc2[N+](=O)[O-])C1 (centres undefined)	11.2	-2.2	-4.8	10.1	nt	nt	nt	-10.1

Rewritten with bars between the fields: 2 of the compounds above
molecule | HIV Env fusion | MT1-MMP act inh | MT1-MMP act inh RFP | CSC inhib | PABP FP inh | eIF4H FP inh | Rce1 inh | UUG fidelity
Cc1cccc(C)c1OCc1nc2ccccc2[nH]1 | -8.9 | -0.4 | 0.2 | 8.0 | 10.7 | -2.1 | i | nt
CC(=O)Nc1ccc(C=C(C#N)c2ccc(C)cc2)cc1 | -74.1 | 1.1 | -5.2 | nt | nt | nt | nt | -11.2

Further entries.
SMILES	HIV Env fusion	MT1-MMP act inh	MT1-MMP act inh RFP	CSC inhib	PABP FP inh	eIF4H FP inh	Rce1 inh	UUG fidelity
O=C(c1cccs1)N(Cc1cccc(Cl)c1)C1CCS(=O)(=O)C1 (centres undefined)	3.5	-0.8	1.6	-5.7	0.5	7.9	i	-11.0
O=C1c2ccccc2CN1c1ccccc1	-117.7	-1.8	-1.9	4.4	11.7	6.0	i	-6.0
CCN(CCCNc1ncnc2nc[nH]c12)c1cccc(C)c1	22.5	2.2	-11.4	2.6	-11.6	8.7	i	-6.7
CC(C)OC(=O)CSc1nc(Cc2ccccc2)nc2ccccc12	21.2	-4.2	-5.7	-4.7	14.3	-2.3	i	nt
CC(C)Cc1cc(-c2ccco2)c(C#N)c(N)n1	nt	-10.6	2.7	-14.2	31.2	2.5	i	-6.7
O=C(O)/C=C\C(=O)Nc1ccccc1C(=O)N1CCN(c2ccc(Cl)cc2)CC1	nt	1.7	-3.1	0.5	-2.6	-0.7	i	-22.8
COc1cc(NS(=O)(=O)c2ccc(NC(=O)/C(=C/c3ccccc3Cl)NC(=O)c3ccccc3)cc2)nc(OC)n1	-0.2	4.7	0.8	2.8	6.2	2.5	i	-17.6
CC(=O)Nc1ccc(NC(=O)Cn2cnc(S(=O)(=O)N3CCOCC3)c2)cc1	-5.0	-2.5	0.3	9.7	13.3	-7.6	i	-2.6
O=C1CCCCC1	nt	-2.9	4.5	-9.5	nt	nt	nt	6.6
CC(=O)c1cnn(-c2nc3c(C)cccc3s2)c1C	nt	2.2	6.3	-15.8	-0.5	-2.7	i	-20.4
CCOC(=O)c1sc(Nc2nc3c(F)cccc3s2)cc1C	-4.1	1.1	-0.3	-8.0	5.0	-9.4	i	-31.4
Cc1cc(NC(=O)CSc2nc(=O)cc(N)n2-c2ccc(F)cc2)no1	-10.9	1.1	4.9	3.4	-7.8	1.3	i	-9.0
Cc1ccc(-c2c(C#N)c(N)n3c(nc4ccccc43)c2C#N)cc1	nt	-8.3	-17.7	70.7	16.8	9.2	i	nt
CC(=O)c1cc2ccccc2oc1=O	nt	1.4	1.8	-5.2	nt	nt	nt	-11.9
CCCCC(=O)Nc1cccc(NC(=S)NC(C)=O)c1	5.4	-1.0	5.5	-14.7	0.1	-6.1	i	nt
CCOC(=O)N1CCN(C(=O)c2ccc3c(c2)N(Cc2cc(C)ccc2C)C(=O)c2ccccc2S3=O)CC1 (centres undefined)	5.9	-6.3	-4.4	-3.0	-2.8	-8.7	i	-14.0
